CBX7 AlphaScr – blocks human CBX7 binding to H3K27me3 peptide | O95931 | AlphaScreen His6-CBX7 / biotin-H3K27me3 peptide binding; stronger effect = lower value | normalised signal (fraction of DMSO) (concentration not given with the values) | 66,000 compounds, 1.1% hits; in the data active means normalised signal below about 0.5;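 further: 100 nL library stock added to about 20 µL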
Target sequence (O95931 whole entry, looked up): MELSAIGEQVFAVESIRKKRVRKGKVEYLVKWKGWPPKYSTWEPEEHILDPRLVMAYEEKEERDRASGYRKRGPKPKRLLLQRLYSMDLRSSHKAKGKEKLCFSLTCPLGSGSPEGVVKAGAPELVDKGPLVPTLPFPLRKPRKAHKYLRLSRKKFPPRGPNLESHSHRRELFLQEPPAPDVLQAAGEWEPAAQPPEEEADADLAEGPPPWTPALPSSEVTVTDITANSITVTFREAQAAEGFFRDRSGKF
CBX7 AlphaScr z-score – recorded beside CBX7 AlphaScr, whose call it bears; z-score; measured here: z-score of CBX7 signal; some inactives read as strong as hits; reference of the scale not given here;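 same signal on another scale; lower means less binding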
* = called active by the depositor; & = joins results of further samples. An excerpt; the hit share may differ from the screen's.

SMILES | CBX7 AlphaScr | CBX7 AlphaScr z-score
COc1cc(CNC(C)(C)CO)cc(Br)c1OCC(N)=O | 1.05 | 1.47
COc1ccc(Br)cc1CN1C(=O)CCC1(C)C(=O)NC1CCC(C)CC1 (stereo not drawn) | 0.978 | -0.663
O=C(CSc1nccn1-c1ccc(Cl)cc1)Nc1ccc2c(c1)OCO2 | 0.687 | -1.1
COC(=O)c1cc2oc(C)cc2n1CC(=O)Nc1ccccc1OC | 0.97 | -0.896
CCCCc1ccc(N2CC(c3nc4ccccc4n3CCC)CC2=O)cc1 (stereo not drawn) | 0.937 | -0.395
CCOc1ccc(NC(=O)C2CCCN2S(=O)(=O)c2ccc3c(c2)CCC(=O)N3)cc1 (stereo not drawn) | 1.04 | 0.707
CC(=O)NS(=O)(=O)c1ccc(NC(=O)c2cc(-c3ccc(C)cc3)nc3ccccc23)cc1 | 1.09 | 0.841
COc1ccc(-c2nc(CN3CCC(C(=O)NCc4ccc(F)cc4)CC3)c(C)o2)cc1OC | 1.01 | 0.562
Cc1ccc2cc(CCNS(=O)(=O)c3ccc(Cl)cc3)c(=O)[nH]c2c1C | 0.919 | -0.523
Cc1ccnc(NC(=O)C2c3ccccc3C(=O)N3CCc4ccccc4C23)c1 (stereo not drawn) | 0.897 | -0.141

The closing three records of the section above lead into the next:
SMILES | CBX7 AlphaScr | CBX7 AlphaScr z-score
COc1ccc(-c2nc(CN3CCC(C(=O)NCc4ccc(F)cc4)CC3)c(C)o2)cc1OC | 1.01 | 0.562
Cc1ccc2cc(CCNS(=O)(=O)c3ccc(Cl)cc3)c(=O)[nH]c2c1C | 0.919 | -0.523
Cc1ccnc(NC(=O)C2c3ccccc3C(=O)N3CCc4ccccc4C23)c1 (stereo not drawn) | 0.897 | -0.141
CC(C(=O)Nc1nc(-c2ccccc2)cs1)N1C(=O)C2C3C=CC(C3)C2C1=O (stereo not drawn) | 1.2 | 2.26
N#Cc1cccc(NC(=O)Cc2c(C(=O)O)[nH]c3ccc(Cl)cc23)c1 | 1.02 | 0.458
Cc1onc(-c2ccccc2Cl)c1C(=O)NCCOc1ccc(Cl)cc1 | 0.909&1.09 | -2.28&1.05
O=S(=O)(Cc1cccc(Br)c1)c1nc2ncccc2[nH]1 | 1.23 | 2.16
Cc1ccc(NC(=O)c2cccc3c2C(=O)N(C2CCCCC2)C3)cc1F | 0.919 | -1.51
CCCC1CCC(c2ccc(-c3ccc(CC)cn3)cc2)CC1 (stereo not drawn) | 1.15 | 3.75
COc1ccc(CCNC(=O)C(=O)Nc2ccc(F)cc2)cc1 | 0.999 | -0.036
CCOCCCNC(=O)c1cc2c(-c3ccc(Cl)cc3)nn(C)c2s1 | 1.16 | 0.688
Cc1ccc(Nc2nnc(-c3ccc(C(=O)NCCO)cc3)c3ccccc23)c(C)c1 | 0.973 | -0.893
COc1ccc(Nc2cc(C(=O)NCc3ccc(Cl)cc3)c3ccccc3n2)cc1 | 0.802 | -2.36
COc1ccccc1C(=O)N1CCNc2ccccc2C1 | 1.2 | 2.34
CCc1ccc(NC(=O)CCNS(=O)(=O)c2ccc3c(c2)CCN3C(C)=O)cc1 | 0.881 | -2.2
Cc1oc(-c2ccc(Cl)cc2)nc1CN1CCCC(C(=O)NCCc2ccc(Cl)cc2)C1 (stereo not drawn) | 1.01 | 0.576
Cc1ccc2nc(NC(=O)CN(C)S(=O)(=O)c3cccc4nsnc34)sc2c1 | 1.02 | 0.645
Cc1cccc2c1-c1sc(C(=O)Nc3ccc(S(=O)(=O)N4CCCCC4)cc3)cc1CO2 | 1.45 | 12.7
CCCCOc1ccc(N2C(=O)CC(N3CCC(C(=O)O)CC3)C2=O)cc1 (stereo not drawn) | 0.978 | -0.516
Cc1ccc(N2C(=O)C(N3C(=O)c4ccccc4C3=O)C2c2ccc(F)cc2)cc1 (stereo not drawn) | 0.933 | -1.98
C=CCN(c1ccccc1)C(C(=O)Nc1ccc2c(c1)OCO2)c1ccccc1 (stereo not drawn) | 1.15 | 1.48
O=C(CCCn1c(=O)[nH]c2ccc(Br)cc2c1=O)NCc1ccc2c(c1)OCO2 | 0.929 | -2.12
CCCCNC(=O)CCCC1=NS(=O)(=O)c2ccccc2N1 | 1.15 | 1.17

Sorted by formula weight (smallest number first): some entries from above
SMILES | CBX7 AlphaScr | CBX7 AlphaScr z-score
COc1ccccc1C(=O)N1CCNc2ccccc2C1 | 1.2 | 2.34
CCCCNC(=O)CCCC1=NS(=O)(=O)c2ccccc2N1 | 1.15 | 1.17
CCCCOc1ccc(N2C(=O)CC(N3CCC(C(=O)O)CC3)C2=O)cc1 (stereo not drawn) | 0.978 | -0.516
C=CCN(c1ccccc1)C(C(=O)Nc1ccc2c(c1)OCO2)c1ccccc1 (stereo not drawn) | 1.15 | 1.48
Cc1oc(-c2ccc(Cl)cc2)nc1CN1CCCC(C(=O)NCCc2ccc(Cl)cc2)C1 (stereo not drawn) | 1.01 | 0.576

(further entries)
SMILES | CBX7 AlphaScr | CBX7 AlphaScr z-score
CCOC(=O)c1cnc2ccc(C)cc2c1NCCc1ccc(OC)c(OC)c1 | 1.16 | 1.49
O=C(CC1(O)C(=O)Nc2ccc(Br)cc21)c1ccc(F)cc1 (stereo not drawn) | 0.937 | -0.11
CCc1ccc(-c2csc(Nc3ccc(S(=O)(=O)Nc4nc(C)cc(C)n4)cc3)n2)cc1 | 0.885 | -2.49
COC(CNC(=O)c1ccc2c(c1)nc(C)n2-c1cccc(C)c1)OC | 1.02 | 0.408
CC(C)NCCn1c(-c2ccccc2)cn2c3ccccc3nc12 | 0.922 | -1.52
Cc1nnc(Nc2ccc(C(=O)NCCO)cc2)c2ccccc12 | 1.16&1 | 1.79&0.119
O=C(NCCN1CCCCCC1)C1CCN(c2nnc(-n3cccc3)s2)CC1 | 2.04 | 11
COc1cc2c(C(=O)Nc3ccc4c(c3)OCCO4)cn(CC(C)C)c(=O)c2cc1OC | 0.782 | -5.67
COc1ccc(OC)c(CNC(=O)c2cc(=O)[nH]c3ccc(S(=O)(=O)N4CCCC4)cc23)c1 | 1.05 | 1.42
CCCN(C(=O)Cc1c(C(=O)O)[nH]c2ccccc12)c1ccc(CC)cc1 | 1.04 | 0.637
COC(=O)Cn1cc(S(=O)(=O)N2CCN(c3ccccc3F)CC2)c2ccccc2c1=O | 0.916 | -1.83
O=c1[nH]c2ccc(Cl)cc2c(-c2ccccc2)c1CN1CCOCC1 | 1.03 | 1.25
O=C(CC(C(=O)N1CCc2ccccc21)n1ccnc1)NCCCN1CCOCC1 (stereo not drawn) | 0.992 | -0.186
CC(NC(=O)CCCN1C(=O)CSc2ncccc21)C12CC3CC(CC(C3)C1)C2 (stereo not drawn) | 1.07 | 0.945
O=C(NCc1ccc(F)cc1)c1ccc2c(c1)N(Cc1ccccc1)C(=O)c1ccccc1S2 | 0.936 | -0.632
CCCN(C(=O)Cn1nc(Cc2cccnc2)c2ccccc2c1=O)c1ccc(F)cc1 | 0.999 | -0.0472
Cc1cc(N2CCCCC2)nc2ccc(NC(=O)CCC(=O)NC3CCCc4ccccc43)cc12 (stereo not drawn) | 1.05 | 0.0527
Cc1cc(C(=O)CN2CCOCC2)c(C)n1-c1ccc(Cl)c(Cl)c1 | 0.898 | -1.31
O=C(Nc1ccc(-c2csc(-c3ccccc3)n2)cc1)c1ccc(Br)cc1 | 1.02 | 1.07
COc1ccc(-c2cc(C(=O)Nc3cccc(Cl)c3C)no2)cc1OC | 0.839 | -2.22
O=C(NCCc1ccccc1)C1c2ccccc2C(=O)N1Cc1ccc(F)cc1Cl (stereo not drawn) | 0.993 | -0.0239
COc1ccc(NC(=O)CC23CC4CC(C2)CC(n2nnc(C)n2)(C4)C3)cc1Cl | 0.943 | -0.66
Cc1ccc(-n2nc3c(c2NC(=O)CCc2ccccc2)CS(=O)(=O)C3)cc1 | 1.19 | 1.22
CCN1CCN(c2cc(C)c3cc(NC(=O)Cc4c(F)cccc4Cl)ccc3n2)CC1 | 1.11 | 0.716
O=C(c1cc(F)ccc1F)N1CCc2c([nH]c3ccccc23)C1c1ccc2c(c1)OCO2 (stereo not drawn) | 0.62 | -6.02
COc1ccc(OC2C(=O)N(Cc3ccc(F)cc3)C2c2ccc(OC)c(OC)c2)cc1 (stereo not drawn) | 0.806 | -0.685
COc1ccc(CCNc2cc(C)nc3c(-c4ccccc4OC)c(C)nn23)cc1OC | 0.706 | -4.04
Cc1ccc(Oc2ncnc3scc(-c4ccc(Cl)cc4)c23)cc1C | 1.2 | 0.396
Cc1cc(NC2c3ccccc3C(=O)N2Cc2ccccc2)ccc1Br (stereo not drawn) | 0.647 | -9.54
O=S(=O)(Nc1nc2ccccc2nc1Nc1cccc(F)c1)c1ccccc1 | 0.812 | -5.42
CCOC(=O)N1CCc2c(sc(NCc3ccc(N(C)C)cc3)c2C(=O)Nc2ccc(OCC)cc2)C1 | 0.581 | -21.7
CCc1ccc2oc(-c3ccc(C)c(NC(=O)c4ccc(F)cc4)c3)nc2c1 | 1.03 | 0.617
Cc1cccc(OCc2nc(-c3ccccc3)no2)c1 | 1.27 | 3.05
Cc1cccc(NC(=O)c2cc3c(C)nn(-c4ccccc4)c3s2)c1 | 1.22 | 5.32
Clc1cccc(CNc2ccc3nnc(-c4ccccc4)n3n2)c1 | 0.996 | -0.0844
COc1cc(-c2nnc(N)o2)ccc1OCc1ccc(Cl)cc1Cl | 0.979 | -0.267
O=C(Nc1ccc(OC(F)(F)F)cc1)C1CCCN(S(=O)(=O)c2cccc3cccnc23)C1 (stereo not drawn) | 0.904 | -1.55
CCOC(=O)N1CCC(N2Cc3cccc(C(=O)NCC4CCN(CC(C)C)C4)c3C2=O)CC1 (stereo not drawn) | 1.03 | 0.408
Cc1ccc(N2CC(c3nc4ccccc4n3C)CC2=O)c(C)c1 (stereo not drawn) | 1.16 | 1.11
CCOCCCNC(=O)c1ccc2c(c1)N=C(CC)c1cc(Cl)ccc1S2 | 0.953 | -2.24
CCOc1ccc(C2C(=O)N(C3CCCCC3)CC(=O)N2Cc2cccc(OC)c2)cc1OC (stereo not drawn) | 0.927 | -1.63
CCc1ccc(-c2nc(SCC(=O)NCCOC)c(-c3ccccc3)[nH]2)cc1 | 0.932 | -1.17
O=C(CCn1nc(-c2ccccc2)c2ccccc2c1=O)NCc1cccnc1 | 1.05 | 1.48
COc1ccc(Nc2cc(C(=O)NCc3ccccc3)c3ccccc3n2)cc1OC | 0.894 | -1.26
O=c1[nH]c2ccc(Cl)cc2c(-c2ccccc2)c1CN1CCCCC1 | 0.986 | -0.56
O=C(Cc1ccccc1)NC1(C(=O)Nc2cccc(Cl)c2)CCCCC1 | 1.13 | 1.68
CCCCCNc1nc(C(C)C)c2c(c1C#N)CC(C)(C)OC2 | 1.18 | 5.43
O=C(Nc1nc(-c2ccccn2)cs1)c1ccc(N2C(=O)CCC2=O)cc1 | 0.0715* | -23.1*
Cc1ccc(S(=O)(=O)c2cn(CC(=O)Nc3ccc(F)cc3)c3ccc(C)cc3c2=O)cc1 | 0.912 | -1.27
COc1ccc(Nc2ncc(C(=O)N3CCCCCC3)c3ccccc23)cc1 | 0.873 | -2.13

(next part)
SMILES | CBX7 AlphaScr | CBX7 AlphaScr z-score
O=C(NCC1(c2ccccc2)CCCC1)C1CCCN(S(=O)(=O)c2cnc[nH]2)C1 (stereo not drawn) | 0.916 | -1.91
CCCC(=O)Nc1ccc(-c2nc3ccc(C)cc3s2)cc1 | 0.937 | -1.76
COC(CNC(=O)c1ccc2c(c1)nc(C)n2-c1cccc(F)c1)OC | 1.04 | 1.13
CC(C)c1ccc(S(=O)(=O)Nc2ccc3oc4c(c3c2)C(=O)CCC4)cc1 | 0.914 | -1.63
Cc1cccc2c(C(=O)O)cc(-c3ccc4c(c3)OCCO4)nc12 | 1.06 | 0.603
Cc1ccc2cc(CCNC(=O)Cc3ccccc3)c(=O)[nH]c2c1C | 1.12 | 0.759
CC(=O)Nc1ccccc1-c1nc2ccc(C(=O)NC3CCC(C)CC3)cc2[nH]c1=O (stereo not drawn) | 0.98 | -0.388
CCc1c(C)c(C#N)c2nc3ccccc3n2c1N1CCN(Cc2ccccc2)CC1 | 1.14 | 2.63
COc1ccc(OC(C)C(=O)NCCc2nc3ccccc3[nH]2)cc1 (stereo not drawn) | 1.02 | 0.143
COc1ccc(CCNC(=O)CSc2nc(NCc3ccccc3)c3ccccc3n2)cc1OC | 0.992 | -0.411

Full records, quoted from the list. Screens in order: CBX7 AlphaScr	CBX7 AlphaScr z-score
Cc1ccc2cc(CCNC(=O)Cc3ccccc3)c(=O)[nH]c2c1C as listed: 1.12	0.759
COc1ccc(OC(C)C(=O)NCCc2nc3ccccc3[nH]2)cc1 (stereo not drawn) as listed: 1.02	0.143
COc1ccc(CCNC(=O)CSc2nc(NCc3ccccc3)c3ccccc3n2)cc1OC as listed: 0.992	-0.411
Cc1cccc2c(C(=O)O)cc(-c3ccc4c(c3)OCCO4)nc12 as listed: 1.06	0.603

Continued.
SMILES | CBX7 AlphaScr | CBX7 AlphaScr z-score
CC1CN(Cc2cn3c(-c4cccc(Br)c4)nnc3s2)CC(C)O1 (stereo not drawn) | 0.964 | -0.64
O=C(NCCC1=CCCCC1)c1cccc(NC2=NC3CS(=O)(=O)CC3S2)c1 (stereo not drawn) | 1.02 | 0.709
COc1ccc(CNC(=O)c2cc(-c3ccccc3)nc3ccccc23)cc1 | 1.07 | 0.136
O=C1CCc2cc(S(=O)(=O)NC(C(=O)Nc3ccccc3F)c3ccccc3)ccc2N1 (stereo not drawn) | 0.988 | -0.403
CCOC(=O)c1c(C)n(C)c2ccc(OCC(O)CN3CCN(C)CC3)cc12 (stereo not drawn) | 1.01 | 0.412
Cc1cccc(NC(=O)c2ccc3c(c2)C(=O)N(c2cccc(C)c2)C3=O)c1 | 1.05 | 0.436
CCOc1ccc2nc(N3CCC(C(=O)N4CCN(Cc5ccccc5)CC4)CC3)sc2c1 | 0.807 | -5.21
O=C(NCc1nc2ccccc2n1Cc1ccccc1F)c1ccc(Cl)cc1 | 1.03 | 0.384
Nc1nonc1-c1nc2ccccc2[nH]1 | 0.955 | -0.614

Screens deposited in PubChem BioAssay by several laboratories.
